Assay outcomes deposited in PubChem BioAssay by National Center for Advancing Translational Sciences (NCATS).
HPGD block: blocks human HPGD enzyme activity; purified HPGD, NADH fluorescence kinetic, PGE2 substrate; Potency, µM, without a hit: at the top dose activity change, negative = inhibition, usual class: inhibitors; actives 4.3% (n = 150,000); AID 894; active = well fitted inhibition curve with a large enough effect (not every such curve was filed as active); inconclusive = small, poorly fitted or top-dose-only effect, or another doubt; inactive = no such curve, though single readings can be large or run the other way;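 note: top concentration of the series not given in the record; plate controls included wells without enzyme; inactives centre near -10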
Target sequence (P15428 whole entry, looked up): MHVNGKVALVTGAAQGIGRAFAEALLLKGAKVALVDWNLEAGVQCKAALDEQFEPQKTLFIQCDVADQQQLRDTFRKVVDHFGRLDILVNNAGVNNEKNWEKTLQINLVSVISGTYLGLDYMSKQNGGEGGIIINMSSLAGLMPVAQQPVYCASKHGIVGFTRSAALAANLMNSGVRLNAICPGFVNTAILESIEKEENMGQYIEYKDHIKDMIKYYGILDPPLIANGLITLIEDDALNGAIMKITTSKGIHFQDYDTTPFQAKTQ
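NADH formation kinetics: reaction with 30 uM PGE2 and 1 mM NAD+ (final), 20 nM enzyme, Tris-HCl pH 8 with Tween 20, after 15 min compound preincubation at room temperature. Fluorescence change, last versus first of five reads.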
Starred values were filed as active, the others as inactive; u = inconclusive; & = joins results of further samples. % is set by controls: 0 for no effect and ±100 for the full control effect; potency is the fitted concentration of half-maximal effect.

entry | structure | HPGD block
1 | Cc1ccc2nc(NCCO)nc(-c3ccccc3)c2c1 | u
2 | COc1ccc(NC(=O)c2cc(C)nc3ccccc23)cc1S(=O)(=O)Nc1ccccc1Cl | -2%
3 | CCCC(=O)Nc1ccc(S(=O)(=O)N2CCOCC2)cc1 | -4%
4 | CCn1cc(CNC(=O)c2cccc([N+](=O)[O-])c2)c(C)n1 | -11%
5 | COCCCN1C(=O)C(O)=C(C(=O)c2ccco2)C1c1cccc(Br)c1 (stereo not given) | -9%
6 | Cc1ccc(C(=O)CSc2nnc(-c3ccc4[nH]c(C)c(C)c4c3)o2)cc1C | -8%
7 | O=S(Cc1ccc(Br)cc1)Cc1nnc(SCc2ccc(Br)cc2)n1-c1ccccc1 (stereo not given) | -1%
8 | CCc1nn(CC(=O)NCCCN2CCCC2=O)c(=O)c2cc3sccc3n12 | -17%
9 | CCOC(=O)Cc1ccc(NC(=O)c2ccc(C(C)(C)C)cc2)cc1 | -8%
10 | CC(=O)Nc1ccc(S(=O)(=O)N(C)CC(=O)OCC(=O)c2cc(C)n(-c3ccc4c(c3)OCO4)c2C)cc1 | -16%
11 | O=C(Cc1cccs1)N(Cc1cccs1)C1(C(=O)NC2CCCC2)CCCCC1 | -8%
12 | COc1ccc(C/C(N)=N/OC(=O)Cc2ccccc2)cc1 | -11%
13 | Cc1c(/C=N\NC(=O)c2ccc(F)cc2)cnn1C | -17%
14 | COC(=O)Nc1ncc(CN2C(=O)c3ccccc3C2=O)s1 | -7%
15 | COc1ccc(N(C(=O)c2ccc(Cl)cc2)C2=CC3CCC(C2)N3C)cc1 (stereo not given) | -1%
16 | O=C(O)c1cc(NS(=O)(=O)c2cccc3ccccc23)ccc1O | -9%
17 | O=c1cc(N2CCc3ccccc3C2)[nH]c(=O)n1-c1ccccc1Cl | -15%
18 | COc1ccc(C(=O)Nc2ccc(S(=O)(=O)Nc3nccnc3OC)cc2)cc1OC | -19%
19 | Cc1ccc(-n2ncc(C(=O)NCc3ccc4c(c3)OCO4)c2NC(=O)c2ccco2)cc1C | -3%
20 | O=C(NCc1cccnc1)C1c2ccccc2C(=O)N1Cc1ccco1 (stereo not given) | -14%
21 | CCN(CC)C(=O)Nc1c(C)n(C)n(-c2ccccc2)c1=O | -6%
22 | Cc1nc2cnc(Nc3ccccc3)nc2n(Cc2cccs2)c1=O | -14%
23 | Cc1c(C(=O)O)[nH]c2c1C(=O)CC(c1ccccc1)C2 (stereo not given) | -12%
24 | COCCN1C=C(C(=O)OC)C(c2ccc(OC)c(OC)c2)C(C(=O)OC)=C1 | u
25 | O=C(C1CCN(S(=O)(=O)c2cnc[nH]2)CC1)N1CCN(c2ncccn2)CC1 | -5%
26 | O=C(NCCNc1ccc([N+](=O)[O-])cc1C(F)(F)F)c1ccccc1F | -6%
27 | CCn1c(N2CCN(CC(=O)Nc3cccc(C)c3C)CC2)nc2ccccc21 | -7%
28 | O=c1c(/C=N/O)coc2ccc3ccccc3c12 | -28%
29 | Cc1ccc(COC(=O)CCc2nc3ccccc3c(=O)[nH]2)cc1 | -8%
30 | CC(=O)Nc1ccc2c(c1)ncn2C | 6%
31 | CCc1ccc(-c2cc(C(=O)NN3CCOCC3)c3ccccc3n2)cc1 | -17%
32 | CCOC(=O)N1CCC(N(CCN(C)C)C(=S)Nc2cc(C)cc(C)c2)CC1 | 6%
33 | CC1CCN(CC(=O)N2c3ccccc3CCc3ccccc32)CC1 | 2%
34 | Cc1c(C(=O)NCc2ccc3c(c2)cc(C)n3C)cccc1[N+](=O)[O-] | 1.8µM*
35 | CCNC(=O)c1ccc(CSc2ccc(Cl)cc2)cc1 | -24%
36 | C=CCn1c(O)c(N=NC(=S)Nc2cccc(OC)c2)c2ccccc21 | -21%
37 | C/C(Cn1cnc([N+](=O)[O-])n1)=N\NC(=O)c1ccc(Br)cc1 | -12%
38 | Cn1c(=O)oc2cc(S(=O)(=O)NCc3ccccn3)ccc21 | -2%
39 | COCCCn1c(SCc2cc(=O)[nH]c3ccccc23)nnc1-c1ccco1 | 5%
40 | Cc1ccc2nc(NC(=O)c3ccc4ncsc4c3)sc2c1 | u
41 | Cc1ccc2cccc(Oc3ccc([N+](=O)[O-])cc3[N+](=O)[O-])c2n1 | -18%
42 | CC1CCN(C(=S)NC(=O)c2ccccc2)CC1 | -11%
43 | O=c1cnc2cnc(OCc3ccccc3)nc2n1CCc1ccccc1 | -13%
44 | O=C(Oc1ccnc2cc(Cl)ccc12)N1CCCCCC1 | 32µM*
45 | COc1ccc(C(c2nnnn2C(C)(C)C)N2CCN(C)CC2)cc1OC (stereo not given) | -5%
46 | O=C(NC1CCCCCC1)c1nnc(Cc2ccc(Cl)cc2)o1 | -11%
47 | C/C(=N\NC(=O)c1cccc(N/N=C(\C)c2ccccc2)c1)c1ccccc1 | u
48 | CCc1c(C)nc(SCCOc2ccc(OC(C)C)cc2)[nH]c1=O | u
49 | COc1ccc(N2C(=O)CCC(C(=O)Nc3cccc(C)n3)C2c2ccc(OC)c(OC)c2)cc1 (stereo not given) | -4%
50 | COc1cc([N+](=O)[O-])ccc1NC(=O)CCCOc1cccc(C)c1 | -10%

Additional structures follow.
entry | structure | HPGD block
51 | COc1ccc(-c2noc(CCC(=O)Nc3ccc(C)c(C)c3)n2)cc1 | -7%
52 | CC(C(=O)N=Nc1c(O)[nH]c2ccccc12)n1cnc2ccccc2c1=O (stereo not given) | -16%
53 | Cc1ccc2oc(=O)c3cnn(CC(=O)NCCCOC(C)C)c3c2c1 | -10%
54 | CC(C)Oc1ccc(/C=N/NC(=O)c2ccc(N(Cc3ccccc3)S(C)(=O)=O)cc2)cc1 | u
55 | CO/N=C(\C(=O)N[C@@H]1C(=O)N2C(C(=O)O)=C(COC(N)=O)CS[C@H]12)c1ccco1 | -6%
56 | O=C1C=C(c2ccccc2)C(O)(c2ccccc2)C1 (stereo not given) | -8%
57 | Cc1ccccc1OCC(=O)OC(C(=O)c1ccccc1)c1ccccc1 (stereo not given) | -20%
58 | CN(C)c1ccc(NC(=O)CSc2nc(N)c(C(=O)Nc3ccc(N(C)C)cc3)s2)cc1 | -9%
59 | C[C@H](CCC(=O)O)[C@H]1CC[C@H]2[C@H]3C(C[C@H](O)[C@]12C)[C@@]1(C)CC[C@@H](O)C[C@H]1C[C@H]3O (stereo not given in full) | -3%
60 | CCOC(=O)Nc1oc2ccccc2c(=O)c1C | u
61 | CCOc1ccc(S(=O)(=O)n2nnc3ccccc32)cc1C(C)C | -4%
62 | O=C(c1ccc(C(F)(F)F)cc1)N1CCC(=O)N([C@H](COCc2ccc(C(F)(F)F)cc2)Cc2ccccc2)CC1 | -12%
63 | COc1cc(C2Sc3ccccc3NC3=C2C(=O)OC3)cc(OC)c1OC (stereo not given) | 0%
64 | CC1CCN(c2nc3ccccc3nc2N2CCC(C)CC2)CC1 | -1%
65 | COc1cc(/C=N/n2cnnc2)ccc1OC(=O)c1ccncc1 | -2%
66 | CN(C)Cc1ccccc1Sc1ccc(Br)cc1 | -4%
67 | COc1cccc(C(=O)C2CN(c3ccccc3)CC2c2ccc(Cl)cc2)c1 (stereo not given) | -11%
68 | N#C/C(=C1\CCCN1)c1ccc2ccccc2n1 | -13%
69 | Cc1ccccc1NC(=O)CSc1nnc(-c2ccccc2)n1-c1ccccc1 | -10%
70 | Cc1cnc(NC(=O)c2ccco2)s1 | -5%
71 | Cc1ccc(OCC(=O)N2CCC(N3CCCCCC3)CC2)cc1 | -9%
72 | CC(C)c1ccc(-c2nc(N3CCCCC3)[nH]c(=O)c2C#N)cc1 | -21%
73 | O=C(NCc1ccco1)c1ccccc1-c1ccccc1 | -4%
74 | CCCn1c2ccccc2c2nnc(SCC(=O)Nc3cc(C)on3)nc21 | -10%
75 | CC(OC(=O)c1cc2sccc2n1C)C(=O)NCc1ccc2c(c1)OCO2 (stereo not given) | -21%
76 | N#C/C(=C/c1ccc(N2CCCCC2)o1)C(=O)Nc1ccc2ccccc2c1 | u
77 | CC1(C)CC(=O)c2sc(NC(=O)CN3C(=O)CCC3=O)nc2C1 | u
78 | O=C(Nc1ccccc1)c1cc(S(=O)(=O)N2CCSCC2)ccc1Cl | -2%
79 | C=CCn1c(C)cc(C2=NNC(=NC(C)(C)C)SC2)c1C | -18%
80 | O=C1/C(=C/c2ccco2)N=C(N2CCCCC2)N1c1ccccc1 | -11%
81 | O=C(COC(=O)c1cc(Br)c(Br)s1)NCCC1=CCCCC1 | 1%
82 | CC1CCC(C(C)[C@H]2CCC3C4CC(=O)C5C[C@@H](O)CC[C@]5(C)C4CC[C@@]32C)=NC1 (stereo not given in full) | -12%
83 | Cc1ccc(CNC(=O)CCCC(=O)O)cc1 | -5%
84 | O=C(NNC(=O)c1cccc2ccccc12)c1ccc(-c2ccccc2)cc1 | u
85 | COC(=O)c1c(NC(=O)CN2CCN(c3ccccc3)CC2)c2c(C)cccc2n1C | -6%
86 | O=C(Nc1cccnc1)c1cccs1 | -13%
87 | Cn1cc([N+](=O)[O-])c(C(=O)Nc2ccc(-c3nc4ccccc4[nH]3)cc2)n1 | -10%
88 | Cc1ccc(Cl)cc1N1CCN(C(CC(C)C)c2nnnn2CC2CCCO2)CC1 (stereo not given) | -4%
89 | Cc1ccc(S(=O)(=O)Cn2nnnc2CN(Cc2ccco2)Cc2cccs2)cc1 | -4%
90 | Cc1cccc(C)c1OCC(=O)Nc1cccc(NC(=O)c2ccco2)c1 | -20%
91 | O=C(CCc1nc2cccnc2n1Cc1ccccc1)N1CCOCC1 | -17%
92 | COc1ccc2c(c1)C(=O)N(c1ccccc1OC)C(=O)C2(C)C | -11%
93 | O=C(O)C1C2C=CC(C2)C1C(=O)OCc1ccccc1 (stereo not given) | -1%
94 | CCCN(CCC)c1nc2ccccc2nc1C(C#N)C(=O)OC(C)COC (stereo not given) | -18%
95 | CCc1ccccc1NC(=O)CCN1C(=O)c2ccccc2C1=O | -1%
96 | CN(C)C(=O)CSc1nnc(C23CC4CC(CC(C4)C2)C3)o1 | 6%
97 | Cc1cc(NC(=O)CSc2cn(CCNC(=O)c3ccccc3)c3ccccc23)no1 | 3%
98 | COC(=O)CCCCCN1C(=O)NC(CC2CC2)C(C(=O)OCc2ccccc2)=C1C (stereo not given) | -13%
99 | O=C(N1CCOCC1)C12CC3CC(C1)CC(n1cnc(Cl)n1)(C3)C2 | 2%
100 | Cc1nn(-c2ccccc2)c(Cl)c1/C=N/NC(=O)C1COc2ccccc2O1 (stereo not given) | -15%

Carrying on:
entry | structure | HPGD block
101 | CC1(C)CC(=O)c2cc(OCC(=O)N3CCOCC3)ccc2O1 | u
102 | Cc1cccc(-n2c3nc(=O)[nH]c(=O)c-3cc3cc([N+](=O)[O-])ccc32)c1 | -32%
103 | O=C1CCC(C(=O)OCC(=O)c2c[nH]c3ccccc23)=NN1 | -13%
104 | CC(C)(C)CC(C)(C)c1ccc(OCCOCC[N+](C)(C)Cc2ccccc2)cc1 | -13%&-11%&-7%
105 | COC(=O)C1=C(C(=O)OC)[C@@H]2N(Cc3ccccc3)c3ccccc3[C@@]23C[C@@H](C(=O)OC)N(S(=O)(=O)c2ccc4c(c2)OCCN4C)C3=N1 | -7%
106 | COc1ccc(-n2c(SCC(N)=O)nc3nc4c(cc3c2=O)COC(C)(C)C4)cc1 | -23%
107 | COc1ccc(NC(=O)CN2CCN(C3c4ccccc4-c4ccccc43)CC2)c(OC)c1 | -9%
108 | Cc1cc(S(=O)(=O)N(Cc2ccc(C(C)C)cc2)CC2CCCO2)ccc1-n1cnnn1 (stereo not given) | -12%
109 | Cc1ccc(O)c(NC(=O)c2cccc(NC(=O)c3ccco3)c2)c1 | -26%
110 | C#CCOC(=O)NC(/C=C/CCCC)c1ccccc1 (stereo not given) | -9%
111 | COC(=O)N1CCC[C@@]2(CCN(C(=O)Nc3ccccc3)C2)C1 | -11%
112 | Cc1nc2ccc(S(=O)(=O)NCC(=O)NCCN3CCCCCC3)cc2s1 | -16%
113 | COC(=O)C(C(=O)OC)[C@@H]1O[C@@]23COC=C[C@]2(C)[C@H]3c2ccccc21 | -4%
114 | CCCc1cc(COC)c(C#N)c(=O)[nH]1 | u
115 | CC(=O)Nc1ccc(S(=O)(=O)CCC#N)cc1 | -10%
116 | CN(C)CCN1C(=O)CC[C@]2(C)C1=CC[C@@H]1[C@@H]2CC[C@]2(C)[C@H]1CC[C@]2(C)O | -11%
117 | O=C(NCCCN1CCOCC1)c1cc(-c2cccs2)on1 | -12%
118 | CCOc1cc2[nH]c(=S)n(CCC(=O)N3CCc4ccccc4C3)c(=O)c2cc1OCC | -11%
119 | Cc1ccc2nc(NC(=O)C3CCN(S(=O)(=O)c4cccnc4)CC3)sc2c1 | -10%
120 | Cc1ccc(Cn2ccc(NC(=O)c3cc(-c4ccco4)on3)n2)cc1 | -14%
121 | Nc1nc(CSc2nc3ccccc3[nH]2)nc(N2CCOCC2)n1 | -12%
122 | COc1ccc(CNCCCO)cc1OC | -3%
123 | CCn1c(C)csc1=NC(=O)c1ccccc1O | u
124 | CCOc1ccc(C(=O)NNC2CC(=O)N(CCc3ccccc3)C2=O)cc1OC (stereo not given) | -8%
125 | CSc1nc(NCc2ccccc2)c2c3c(sc2n1)CN(C)CC3 | u
126 | O=C1c2cccc3cc(Br)cc(c23)C(=O)N1Nc1ccccc1 | -5%
127 | COc1ccccc1C(=O)Nc1nc(-c2ccc(S(=O)(=O)N3CCOCC3)cc2)cs1 | u
128 | C#CC(C)(CC)NC(=O)c1cc(OC)c(OC)c(OC)c1 (stereo not given) | -13%
129 | Oc1ccccc1 | -10%

Quoted at random: 6 records from the list, in no set order.
entry | structure | HPGD block
128 | C#CC(C)(CC)NC(=O)c1cc(OC)c(OC)c(OC)c1 (stereo not given) | -13%
121 | Nc1nc(CSc2nc3ccccc3[nH]2)nc(N2CCOCC2)n1 | -12%
125 | CSc1nc(NCc2ccccc2)c2c3c(sc2n1)CN(C)CC3 | u
127 | COc1ccccc1C(=O)Nc1nc(-c2ccc(S(=O)(=O)N3CCOCC3)cc2)cs1 | u
122 | COc1ccc(CNCCCO)cc1OC | -3%
129 | Oc1ccccc1 | -10%

The list is partial. The share of hits here may be higher or lower than overall.
